# VACV Venus inh – qHTS for Stage-Specific Inhibitors of Vaccinia Orthopoxvirus: Venus Reporter Primary qHTS; Vaccinia virus Venus reporter expression, fluorescence; Potency, µM (titrated, usually from 36.5 µM), inactives show top-dose activity change, negative = inhibition, most hits filed as inhibitors; actives 0.46% (n = 330,000); active means well fitted inhibition curve with a large enough effect; inconclusive means small, poorly fitted or top-dose-only effect; inactive means no such curve, though single readings can be large or run the other way; tested in A549 cells; note: nearly all actives have a fitted effect of over 30% in size; inactives centre near -10
# VACV mCherry inh – qHTS for Stage-Specific Inhibitors of Vaccinia Orthopoxvirus: mCherry Reporter Primary qHTS | Vaccinia virus mCherry reporter infection, fluorescence; about a quarter of the inactives have no number | Potency, µM (highest dose often 36.5 µM), without a hit: at the highest dose activity change, negative = inhibition, hits mostly inhibitors | actives 0.63% (n = 310,000); active = well fitted inhibition curve with a large enough effect; inconclusive = small, poorly fitted or top-dose-only effect; inactive = no such curve, though single readings can be large or run the other way; tested in A549 cells; note: nearly all actives have a fitted effect of over 35% in size; inactives centre near -10
# * hit, by the source's call; i = inactive; ? = inconclusive; nt = no result given; & = joins results of further samples; [ ] = remark or other dose. % is set by controls: 0 for no effect and ±100 for the full control effect; potency is the fitted concentration of half-maximal effect.
# Preview:
SMILES,VACV Venus inh,VACV mCherry inh
CCCCN1C(=O)CCC(C(=O)O)C1c1ccc(OC)cc1 (stereo not drawn),-9%,-2%
COc1cccc(NC(=S)N(CCN(C)C)Cc2cccs2)c1,-6%,i
COc1ccc(Cc2nnc(NC(=O)c3ccc(OC)c(OC)c3)s2)cc1OC,-16%,i
COC(=O)c1ccc(NC(=O)c2ccc3nccnc3c2)cc1,-2%,-13%

# This part in full, previewed entries included:
SMILES,VACV Venus inh,VACV mCherry inh
CCCCN1C(=O)CCC(C(=O)O)C1c1ccc(OC)cc1 (stereo not drawn),-9%,-2%
COc1cccc(NC(=S)N(CCN(C)C)Cc2cccs2)c1,-6%,i
COc1ccc(Cc2nnc(NC(=O)c3ccc(OC)c(OC)c3)s2)cc1OC,-16%,i
COC(=O)c1ccc(NC(=O)c2ccc3nccnc3c2)cc1,-2%,-13%
CCN(Cc1ccccc1)C(=O)CCS(=O)(=O)c1cc(Br)cc2c1N(C(=O)C1CC1)CC2,-15%,-22%
CCN1C(=O)N(c2ccc(C(C)=O)cc2)S(=O)(=O)c2ccccc21,-1%,4%
Cc1ccc(CNS(=O)(=O)c2ccc(-c3cnc(C4CC4)o3)cc2)cc1,-5%,-16%
COc1ccccc1-c1ccc(SCC(=O)NCc2ccc3c(c2)OCO3)nn1,-6%,-5%
COc1ccc(OC)c(N(CC(=O)N2CCCC2)S(=O)(=O)c2ccc(OC)c(OC)c2)c1,-2%,-15%
CCc1nn(CC(=O)NCc2cccc(OC)c2OC)c(=O)c2cc3occc3n12,-6%,-6%
Cc1cccc(NC2=C(NCCO)C(=O)c3ccccc3C2=O)c1,-5%,i
COc1cccc(N2CCN(S(=O)(=O)c3ccc4ccccc4c3)CC2)c1,-18%,-11%
N#Cc1cccc(C(c2nnnn2Cc2ccccc2)N2CCCC2)c1 (stereo not drawn),-15%,-2%
O=C(CSc1ccc(-c2ccccc2)nn1)N1CCCc2ccccc21,-18%,?
CCCCN(C)CCCNC(=O)Cn1cc2c(n1)-c1c(oc(C(=O)N3CCCC3)c1C)CC2,-8%,-2%

# An excerpt of these results, field by field:
> O=C(CSc1ccc(-c2ccccc2)nn1)N1CCCc2ccccc21
  VACV Venus inh: -18% | VACV mCherry inh: ?

> COc1ccccc1-c1ccc(SCC(=O)NCc2ccc3c(c2)OCO3)nn1
  VACV Venus inh: -6% | VACV mCherry inh: -5%

> COc1ccc(OC)c(N(CC(=O)N2CCCC2)S(=O)(=O)c2ccc(OC)c(OC)c2)c1
  VACV Venus inh: -2% | VACV mCherry inh: -15%

> COc1cccc(N2CCN(S(=O)(=O)c3ccc4ccccc4c3)CC2)c1
  VACV Venus inh: -18% | VACV mCherry inh: -11%

# (next part)
SMILES,VACV Venus inh,VACV mCherry inh
O=C(Cc1ccccc1)Nc1cccc(-c2nc3ncccc3o2)c1,?,?
CN(C)CC/C=C1\c2cc(F)ccc2CSc2ccccc21,?,-13%
Cc1nc2ccc(NS(=O)(=O)c3c(F)cccc3F)cc2s1,-9%,-20%
Cc1ccc(S(=O)(=O)Nc2cc(C(=O)NCCN3CCCC3)ccc2N2CCCCC2)cc1,-18%,nt
CCN(C(=O)c1cc(S(=O)(=O)N2CCCCC2)c[nH]1)c1ccc(OC)cc1,-19%&-18%,-23%
CCOC(=O)N1CCN(CC(O)COC(CC)c2ccccc2)CC1 (stereo not drawn),9%,nt
CCN(CC)c1cc(C)nc2nc(-c3ccc(C)cc3)nn12,6%,-29%
CC(C)(C)C(=O)NCC(c1ccc2c(c1)OCO2)N1CCOCC1 (stereo not drawn),-2%,-4%
COc1ccccc1N1CSC2=C(C#N)C(c3ccc(SC)cc3)CC(=O)N2C1 (stereo not drawn),-5%,15%
COc1cccc(OC)c1CN(C)C(=O)c1cnccc1C(F)(F)F,-6%,i
C[C@]12CCC3C(CC[C@H]4C[C@H](O)CC[C@]34C)C1[C@@H](O)[C@@H](O)[C@@H]2O (stereo partly drawn),-9%,-14%
CCOc1ccc(NC(=S)NC(=O)/C=C/c2ccc(OC)c(OC)c2)c([N+](=O)[O-])c1,-16%,i
COc1cccc(N2CC(C)Cn3c2nc2c3c(=O)[nH]c(=O)n2C)c1 (stereo not drawn),-19%,?
COC(=O)Sc1nc(N2CCOCC2)c2c(c1C#N)CC(C)(C)OC2,-9%,-19%
CCC1(C2CCN(C(=O)c3coc4c3C(=O)CCC4)CC2)NC(=O)N(CCc2scnc2C)C1=O (stereo not drawn),2%,-4%
COc1ccc(-c2nc3n(c(=O)c2C#N)CCS3)cc1,-13%,-3%
COc1ccc(NC(=O)C2CCCN2C(=O)Nc2cccc(F)c2)cc1 (stereo not drawn),-20%,?
Cc1nc2c(C(=O)NCCc3ccccc3Cl)c[nH]n2c(=O)c1Cl,-4%,-8%
Cn1c(=O)c2cn(-c3ccccc3)cc2n(C)c1=O,-11%,-3%
COc1ccc(Cn2c(=O)[nH]c3cc(C(=O)NCCC(C)C)ccc3c2=O)cc1,-11%,-16%
CN1C(=O)SC(Nc2cccc3ccccc23)C1=O (stereo not drawn),-20%,nt
c1ccc(-c2cc3nc(NCc4cccs4)nc(NCc4ccc5occc5c4)c3s2)cc1,-1%,10%
CCc1ccc(C(=O)NCC2(c3ccccc3)CCOCC2)o1,-6%,i
CCCc1cc(C(=O)Nc2cc(Br)ccc2O)no1,-17%,?
O=C1c2cccc3c(N4CCCCC4)ccc(c23)C(=O)N1c1ccccn1,3%,nt
CCOc1ccc(C2=NC(c3cccs3)=Nc3ccc(CC)cc3N2)cc1OCC,-14%,-8%
CCOCCCN(C)C1CCN(C(=O)c2oc3ccccc3c2NC(=O)COc2ccc(F)cc2)CC1,-8%,-16%
Cc1ccc(Cl)cc1NC(=O)/C(C#N)=C/c1c(C)n(Cc2ccccc2)c2ccccc12,5%,0%
COc1ccccc1CN1CCNC(=O)C1CC(=O)NCCc1cnccn1 (stereo not drawn),-11%,-1%
CCN(c1ccccc1)S(=O)(=O)c1ccc(C(=O)NCc2ccco2)cc1,-11%,-5%
CC(=O)NCC(=O)OCC(=O)c1ccc(C)c(C)c1,9%,1%
Oc1ccc(/C=N/N2CCCCC2)c(O)c1,-10%,3%
O=C(Nc1ccccn1)c1ccc(Cl)c(S(=O)(=O)N2CCOCC2)c1,-4%,-11%
Cc1ccc(S(=O)(=O)N2CCC[C@H]2C(=O)OCc2nc3ccccc3s2)cc1,-3%,-18%
CCO/C=C1/C(=O)N(CC)c2ccccc21,-16%,-15%
CC1(C(=O)NS(=O)(=O)Cc2cccc(Cl)c2)CCN1C(=O)CCc1cccs1 (stereo not drawn),8%,17%
Cc1cccc(CNc2ncnc3[nH]ncc23)c1,-15%,i
CCCC(=O)Nc1cccc(-c2nc3cc(C)c(C)cc3o2)c1C,-20%,-24%
CC(=O)c1ccc(NC(=O)CSc2ccc(-c3ccc(-n4cccn4)cc3)nn2)cc1,5%,-16%
COCCn1c(Cc2cccn2C)nnc1SCC(=O)NCc1ccc2c(c1)OCO2,-7%,i
O=C(NCC1CCCO1)C1CCC(=O)N1Cc1ccccc1Cl (stereo not drawn),-16%,-4%[1.46 µM]
Cc1ccccc1CN1C(=O)c2ccccc2S(=O)c2ccc(C(=O)NCc3ccc4c(c3)OCO4)cc21 (stereo not drawn),1%,3%
Cn1cnnc1SCC(=O)Nc1ccc2ccccc2c1,-3%,i
C=CCn1c(O)c(/C(C)=N/NC(=S)Nc2ccccc2)c(=O)[nH]c1=O,-7%,-17%
O=C(NCc1ccccc1Br)c1cccs1,6%,27%
CCOC(=O)c1c(NC(=O)C2=C(C)NC(=S)NC2c2ccc(C)cc2)sc(C)c1C (stereo not drawn),-28%,-19%
CCc1ccc2c(CN(C)Cc3ccccc3OC)cc(=O)oc2c1,-9%,-8%
Cc1ccc(-n2nc(C)c3c(C)cc(=O)n(CC(=O)NC(C)c4ccccc4)c32)cc1 (stereo not drawn),0%,-4%
Cc1cc(NC(=O)c2ccc3c(c2)N(Cc2cccc(Cl)c2)C(=O)c2ccccc2S3(=O)=O)ccc1Br,-8%,-11%
Cc1cc(NC(=O)COC(=O)c2cccc(O)c2)no1,14%,i
CC1CN(C(=O)C(C)N2CCN(c3cccc(Cl)c3)CC2)CC(C)O1 (stereo not drawn),-7%,-4%
Cc1ccc2c(c1)C1CN(C)CCC1N2C(=O)c1cccs1 (stereo not drawn),-9%,35%[activator]
COc1cc(CC(NC(C)=O)C(=O)NC2CCN(c3nc(C)cc(C)c3C#N)CC2)cc(OC)c1 (stereo not drawn),-7%,-20%
COC(=O)c1sccc1NC(=S)N1CCN(c2cc(C)ccc2C)CC1,-24%,-27%
CCOC(=O)c1sc(NC(=O)/C=C/c2ccc(OCC)cc2)c(C(=O)OCC)c1C,0%,7%
C/C(=N\NC(=O)COc1ccc(C)cc1[N+](=O)[O-])c1ccc2c(c1)OCCO2,-13%,-11%
COc1ccc(-c2nc(SCC(=O)Nc3cc(C)on3)n[nH]2)cc1,-21%,nt
COc1cc(C(C)=O)ccc1OC(=O)CN1C(=O)c2ccccc2C1=O,-14%,-10%
O=C(CCl)c1ccc(Cc2ncc(C(F)(F)F)cc2Cl)s1,-13%,nt
O=C(COC(=O)c1c2c(nc3ccccc13)CCCCC2)NCc1ccc2c(c1)OCO2,-14%,-26%
# (next part)
SMILES,VACV Venus inh,VACV mCherry inh
CCOC(=O)N1CCN(C(=O)CN(C2CCCCC2)S(C)(=O)=O)CC1,-6%,-9%
O=C(/C=C/c1ccccc1[N+](=O)[O-])N1CCN(C(=O)c2ccco2)CC1,-12%,i
CN(CC(=O)Nc1ccc(F)c(F)c1)S(=O)(=O)c1cccc2nsnc12,1%,-10%
COc1ccc(N2CCN(C(=O)c3cnn(-c4ccc(F)cc4)c3-n3cccc3)CC2)cc1,-2%,-9%
CCOc1ccc(-c2nc(SCC(=O)NCCCOC)c(-c3ccccc3)[nH]2)cc1,-5%,-12%
O=C(NCc1ccco1)c1ccc(N2CCCC2=O)cc1,-12%,-13%
CCCn1c(NCc2ccccc2NS(=O)(=O)c2ccc(C)cc2)nc2ccccc21,?,?
Cc1ccc(S(=O)(=O)C(CNC(=O)C(=O)NCc2ccccc2C)c2cccs2)cc1 (stereo not drawn),-14%,-21%
Cc1cc(=O)c2c(=O)[nH][nH]c2[nH]1,-12%,i
C=CCn1c(SCC(=O)/C(C#N)=C(\C)N)nc2sc(CC)cc2c1=O,-7%&-26%,-15%&-28%
O=C(NCc1nc2ccccc2[nH]1)c1cccc(Cl)c1,-14%,-12%
CCOC(=O)C1CCN(C(=O)c2ccc(NC(=O)c3nsc4ccccc34)cc2)CC1,-6%[7.34 µM],-11%[7.34 µM]
CCN1CCN(c2ccc(S(=O)(=O)N3CCCCC3)cc2NC(=O)C(C)Oc2ccc(F)cc2)CC1 (stereo not drawn),-19%,-7%
CC(C)OCC(O)CS(=O)(=O)Cc1ccccc1 (stereo not drawn),-4%,-12%
COc1ccccc1N=Nc1c(O)[nH]c(=S)[nH]c1=O,-29%,-27%
O=C(Nc1cc(C(=O)NC2CCOCC2)c2c(c1)ncn2C1CCCC1)c1ccccc1,-9%,-15%
COc1cc(C(=O)N(C)CCOc2ccc(C)cc2)ccc1OC1CCN(C(C)=O)CC1,13%,-15%
O=C(CCn1nnc(-c2cccs2)n1)NCc1ccccc1Cl,-12%,-13%
CCN(CC)CCCn1c(C)cc2c(c1=O)C(c1ccccc1)C(C#N)=C(N)O2 (stereo not drawn),4%,-13%
CCN(CC)S(=O)(=O)c1ccc(N2CCOCC2)c(NC(=O)c2nn(C(C)C)c(=O)c3ccccc23)c1,-26%,i
Cc1ccc(-n2c(=O)c3cccnc3n2CC(=O)Nc2ccc(C)cc2Cl)cc1,-24%,-22%
COc1cc(-c2cc(=O)c3c(C)cc(O)cc3o2)cc(OC)c1OC,-21%,i
Cc1nnsc1S(=O)(=O)c1ccccc1,-13%,i
Cc1ccccc1OCC(=O)OCc1cc(=O)n2nc(C3CC3)sc2n1,1%,-8%
O=C(NCCCn1ccnc1)Nc1ccc2c(c1)OCO2,-8%,i
S=C(NNc1ccnc2cc(Cl)ccc12)Nc1ccccc1Cl,-28%,-14%
O=C(Cc1csc2ccccc12)NCc1cccc(Br)c1,-15%,-9%
CC(=O)c1c(C)[nH]c(C(=O)CSc2nc3ccccc3n2C)c1C,-24%,-27%
CC12CC(O)C3C(CCC4=CC(=O)CCC43C)C1CCC2=O (stereo not drawn),4%,-5%
CCOC(=O)c1cnc2c(C)c(Cl)ccc2c1N1CCN(CC)CC1,-18%,?
CCc1cccc(CC)c1NC(=O)C(Cc1ccccc1)NS(=O)(=O)c1cccc2nsnc12 (stereo not drawn),-8%,-11%
Cn1cc2cc(NC(N)=S)ccc2n1,-3%,i
Cc1ccccc1C(=O)Nc1nnc(CC(=O)N/N=C/c2cn(Cc3ccccc3)c3ccccc23)s1,3%,-14%
COc1ccc(OC)c(NC(=O)c2cccnc2)c1,-1%,i
CCCCC(=O)Nc1ccc(C(=O)NCCc2ccccc2)cc1,-20%,i
CCOc1ccc(Cn2c(-c3ccc(OCC)c(OC)c3)nc3ccccc32)cc1OC,-10%,i
O=C(CO/N=C/c1ccccc1)Nc1c(F)c(F)c(F)c(F)c1F,-5%,-1%
CN1CCN(c2ccccc2NS(=O)(=O)c2ccc3c(c2)CCN3C(=O)C2CCC2)CC1,-10%,-20%
CCOc1ccc(OCC(=O)Nc2ccc(S(=O)(=O)Nc3cc(C)on3)cc2)cc1,6%,6%

# Bioassay records deposited in PubChem BioAssay by National Center for Advancing Translational Sciences (NCATS).
